Screening results as filed in PubChem.
Sa growth 42C: blocks Staphylococcus aureus growth; S. aureus RN4220 growth, OD600, 20 h, 42 °C; active compounds read low; relative growth, % (concentration not given with the values); actives 0.53% (n = 170,000); AID 720641;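 active = growth at 42 °C up to 50% and 20 or more points under that at 30 °C, or under 10% at both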;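 also: 300 nL library stock went into each well; scaled to the means of positive and negative controls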
GIV Gai3 FP: GIV-Galpha-i interaction inhibition | P08753 | Galpha-i3/FITC-GIV peptide fluorescence polarization, 90 min; active compounds read low; scaled: aluminum fluoride 0%, vehicle 100% | percent of control (FP), % (test concentration not listed) | actives 0.42% (n = 210,000);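 active = replicate mean at 85% of control or lower, very high polarization wells dropped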;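 also: lower values mean more displacement of the GIV peptide from Galpha-i3; wells of about 15 µL received 100 nL stock; the first replicate is given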
Target sequence (P08753 whole entry, looked up): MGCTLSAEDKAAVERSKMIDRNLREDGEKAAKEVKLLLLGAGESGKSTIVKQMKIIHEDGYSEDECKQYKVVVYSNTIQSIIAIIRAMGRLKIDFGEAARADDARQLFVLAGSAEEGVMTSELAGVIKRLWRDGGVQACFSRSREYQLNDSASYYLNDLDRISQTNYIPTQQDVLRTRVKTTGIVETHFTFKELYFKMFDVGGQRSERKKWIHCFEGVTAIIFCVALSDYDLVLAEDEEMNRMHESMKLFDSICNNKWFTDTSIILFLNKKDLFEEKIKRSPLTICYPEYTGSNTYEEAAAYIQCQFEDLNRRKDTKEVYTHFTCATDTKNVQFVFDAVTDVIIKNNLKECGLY
HCMV UL50-53 inh: disrupts HCMV UL50-UL53 complex binding; HTRF UL50-UL53 interaction, normalized percent inhibition; inhibition, % (test concentration not listed); actives 0.15% (n = 190,000); AID 1918969;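 active = both replicates at 50% or more, plus weaker picks with an unusually low signal ratio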;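 also: stock transfer was 100 nL into about 20 µL; 0% = negative control wells and 100% = wells with untagged competitor protein; inactives centre near -12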
Sa growth 42C second temp: further read-out of Sa growth 42C, marked with its call; relative growth, %; measured here: growth at 30 °C;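 optical density after 20 h as mean of two plates; 100% = untreated growth and lower means inhibition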
Numbers without * were called inactive; · = not tested or not shown; & = joins results of further samples.

Letter code: A = Sa growth 42C; B = Sa growth 42C second temp; C = GIV Gai3 FP; D = HCMV UL50-53 inh
> COc1ccccc1CN1CC(=O)N(c2ccc(C(C)(C)C)cc2)[C@@H]2CS(=O)(=O)C[C@@H]21
  A: ·; B: ·; C: 111; D: -39

> COc1ccc(-c2c(C)nn3c(-c4ccccc4)cc(-c4ccccc4)nc23)cc1OC
  A: 103; B: 101; C: 112; D: 13

> Cc1cc(C)c2c(n1)sc1c(=O)n(CC(=O)Nc3cccc(C)c3C)cnc12
  A: ·; B: ·; C: 101; D: -31

> CCCCNC(=O)c1ccc2cnn(Cc3cccc(Cl)c3)c2c1
  A: ·; B: ·; C: 103; D: -31

> O=C(NCCc1csc(-c2cccc(F)c2)n1)C1CCCC1
  A: ·; B: ·; C: 104; D: -28

> CCOC(=O)c1cnc(SCC(=O)OCC(=O)N2CCc3ccccc32)nc1N
  A: 105; B: 91; C: ·; D: -3

> CCN(CC)CCN1COc2c(cc(Cl)c3cccnc23)C1
  A: 62; B: 20; C: ·; D: -14

> Cc1c(S(=O)(=O)NC2CCCCNC2=O)sc2ccc(Cl)cc12 (stereo not drawn)
  A: 102; B: 93; C: 108; D: -3

> CC1=C(C(=O)OCCc2ccccc2)C(c2cccc(C(F)(F)F)c2)NC(=O)N1C (stereo not drawn)
  A: ·; B: ·; C: 95; D: -14

> Oc1c(CN2CCCCCC2)cc(Cl)c2cccnc12
  A: 123; B: 1; C: ·; D: -25

> CCC1(C)Cc2c(C#N)c(N)n(-c3ccccc3)c(=O)c2CO1 (stereo not drawn)
  A: 89; B: 83; C: ·; D: -12

> O=C(CCCn1c(SCc2cc(=O)oc3cc(O)ccc23)nc2ccsc2c1=O)NCCc1ccccc1
  A: 121; B: 94; C: 106; D: -4

> CN(C)CCNCc1ccc(-c2cccc(Cl)c2)o1
  A: ·; B: ·; C: 106; D: -23

> COc1ccc(CCNc2nc(SCc3cccc(F)c3)nc3ccccc23)cc1OC
  A: 109; B: 85; C: 105; D: ·

> CN(C)CCNC(=O)c1c[nH]c2ccccc12
  A: 92; B: 92; C: 105; D: -13

> COc1cccc(C(=O)OCC(=O)c2ccc(-c3ccccc3)cc2)c1
  A: 100; B: 98; C: ·; D: 5

> NC(=O)CNC(=O)c1ccc(Oc2ccccc2)cc1
  A: 100; B: 83; C: ·; D: 5

> CCC1CCCCN1C(=S)NC(=O)c1ccccc1 (stereo not drawn)
  A: 88; B: 82; C: 97; D: 1

> COc1ccc(-c2noc(N3CCCC(C(=O)NC4CCCc5ccccc54)C3)n2)cc1 (stereo not drawn)
  A: 105; B: 91; C: 101; D: -32

> CCN(CC)C(=O)Cn1ncc2c([nH]c3ccccc32)c1=O
  A: 118; B: 98; C: 110; D: ·

> COc1ccc(-c2oc3ncn(CC(C)C)c(=N)c3c2-c2ccc(OC)cc2)cc1
  A: 93; B: 88; C: 103; D: ·

> O=C(CC1(O)C(=O)N(CCc2ccccc2)c2ccccc21)c1cccnc1 (stereo not drawn)
  A: 103; B: 77; C: ·; D: -36

> CCOc1cc(CNC(=O)CCCn2c(=O)c3cccn3c3cccnc32)cc(OCC)c1OCC
  A: 92; B: 86; C: 101; D: -35

> COc1ccc(NC(=O)Cc2ccc(NC3=NC4CS(=O)(=O)CC4S3)cc2)cc1Cl (stereo not drawn)
  A: ·; B: ·; C: 106; D: -4

> Cc1ccc(NC(=O)CN2C(=O)COc3ccc(S(=O)(=O)N4CCCCCC4)cc32)c(C)c1
  A: 89; B: 79; C: 98; D: ·

The results go on:
Letter code: A = Sa growth 42C; B = Sa growth 42C second temp; C = GIV Gai3 FP; D = HCMV UL50-53 inh
> CNC(=O)c1ccccc1NCC(=O)O
  A: 83; B: 95; C: 97; D: -35

> C=CCN(CC(N)=O)S(=O)(=O)c1ccccc1C(F)(F)F
  A: 109; B: 79; C: ·; D: -4

> CSc1nc(/N=C/N(C)C)n(-c2c(Cl)cc(Cl)cc2Cl)n1
  A: 91; B: 79; C: 103; D: -22

> CCOC(=O)c1sc2nc(-c3ccccc3)cn2c1C
  A: 68; B: 85; C: ·; D: 1

> COc1ccc(C2CC(C3C(=O)c4ccccc4C3=O)=NN2)cc1 (stereo not drawn)
  A: 136; B: 70; C: 122; D: -98

> Cc1ccccc1CN1C(=O)C2CC=CCC2C1=O (stereo not drawn)
  A: 107; B: 100; C: ·; D: 1

> O=C(CSCc1ccc(F)cc1)NCc1ccc(F)cc1
  A: 131; B: 92; C: 103; D: ·

> NC(=O)C1CCC(NC(=O)c2ccc3snnc3c2)CC1 (stereo not drawn)
  A: 115; B: 88; C: 104; D: 2

> O=c1c2cccnc2n(Cc2ccc(Cl)cc2)c(=O)n1C1CCCCC1
  A: 91; B: 90; C: 98; D: ·

> COC(=O)/C=c1\sc2n(c1=O)CN(CCCN1CCOCC1)CN=2
  A: 89; B: 75; C: 105; D: -92

> COc1ccc(C2CC(=O)C3=C(C2)Nc2ccccc2NC3c2ccccc2Br)cc1 (stereo not drawn)
  A: ·; B: ·; C: 104; D: -14

> COc1ccc(NC(=O)c2cc3sccc3n2Cc2ccc(F)cc2)cc1Cl
  A: 92; B: 79; C: 101; D: ·

> O=C(c1cnn(-c2ccccc2)n1)N(Cc1nc2ccccc2c(=O)[nH]1)CC1CCCO1 (stereo not drawn)
  A: 90; B: 88; C: ·; D: -7

> CCCC(=O)c1cc2c(cc1N)OCCO2
  A: 96; B: 85; C: 102; D: -1

> O=C1NCCN1CCNC(=S)Nc1cc(C(F)(F)F)cc(C(F)(F)F)c1
  A: 99; B: 92; C: 103; D: 18

> Fc1cccc(-c2nc3cc(N4CCOCC4)c(N4CCOCC4)cc3[nH]2)c1
  A: 90; B: 99; C: 172; D: -6

> Cc1ccc(C)c(CNc2ccc3[nH]ncc3c2)c1
  A: 19; B: 17; C: 110; D: -35

> CCn1nnc2cc(C(=O)Nc3ccccc3C(=O)NC3CCCC3)ccc21
  A: 95; B: 99; C: ·; D: -5

> C/C(Cn1nnc2ccccc21)=N\NC(=O)c1ccc(Br)cc1
  A: 99; B: 90; C: 109; D: -14

> Cc1cccc(N(CC(=O)NCCSc2ccc(Cl)cc2)S(C)(=O)=O)c1C
  A: 89; B: 66; C: 100; D: -43

> COc1ccc(C2c3cc(OC)c(OC)cc3CC(=O)N2c2cccc(C#N)c2)cc1 (stereo not drawn)
  A: 103; B: 84; C: 100; D: -30

> COc1ccc(-n2nc(C(=O)Nc3ccc(OC)cc3OC)c(=O)n(C)c2=O)cc1
  A: ·; B: ·; C: 106; D: -40

> CCc1nc(CN2CCN(c3ccc(C(F)(F)F)cn3)CC2)c(C)[nH]1
  A: 99; B: 79; C: 101; D: -19

> CCc1ccc(OC(C)C(=O)Nc2c(C(=O)c3ccccc3)oc3ccccc23)cc1 (stereo not drawn)
  A: 95; B: 97; C: 110; D: -1

> CCc1nc(NCc2ccccc2)c(C#N)c2c1COC(C)(C)C2
  A: 82; B: 86; C: ·; D: -12

One compound at a time, from the list above. Screens in order: Sa growth 42C	Sa growth 42C second temp	GIV Gai3 FP	HCMV UL50-53 inh
CCCC(=O)c1cc2c(cc1N)OCCO2 in the list: 96	85	102	-1
CCc1nc(NCc2ccccc2)c(C#N)c2c1COC(C)(C)C2 in the list: 82	86	·	-12

(listing goes on)
Each structure is followed by: Sa growth 42C	Sa growth 42C second temp	GIV Gai3 FP	HCMV UL50-53 inh
COC(=O)c1cccc2c1-c1ccccc1/C2=N\NC(N)=O
  112	86	106	-27
CCCCS(=O)(=O)N1CCN(C(=S)c2ccc(OC)cc2)CC1
  95	89	104	-29
CCNS(=O)(=O)c1ccc(NC(=O)C2CC(=O)N(C(C)(C)C)C2)cc1 (stereo not drawn)
  81	81	104	·
CCOC(=O)c1nc(N2CCC3(CC2)OCCO3)c2c3c(sc2n1)CCCC3
  ·	·	107	-30
CCOC(=O)c1[nH]c(COc2ccc(C#N)cc2)c(C(=O)OCC)c1C
  109	90	·	-31
Cc1ccc(S(=O)(=O)c2c(Nc3ccc(C)c(C)c3)sc(C(=O)c3ccc4c(c3)OCO4)c2N)cc1
  109	104	108	·
Cn1ccc(-c2nc3ccccc3s2)n1
  97	59	102	3
O=C(Nc1nnc(C2=COCCO2)o1)c1cccc2ccccc12
  92	80	103	-28
COc1ccc(NC(=O)C2CCCN(S(=O)(=O)c3ccc4c(c3)CCCC(=O)N4)C2)cc1OC (stereo not drawn)
  90	86	107&106	-8
Cc1ccc(C(=O)Nc2ccccc2F)cc1S(=O)(=O)N1CCOCC1
  99	92	110	-17
c1ccc(NCc2cccs2)nc1
  99	87	102	-12
COc1cc2c(cc1OC)C1(CCCC1)CNC2C (stereo not drawn)
  105	98	111	·
O=C(Cn1c(=O)c2ccccc2n(CC(=O)Nc2ccc(F)cc2F)c1=O)NCCc1ccccc1
  104	85	116	-55
c1ccc(-n2nnnc2N2CCCC2c2ccc3c(c2)OCCO3)cc1 (stereo not drawn)
  89	92	·	-29
COc1cccc(-c2cc(C(=O)NCc3ccccc3)[nH]n2)c1
  113	84	103	·

The results go on:
Each structure is followed by: Sa growth 42C	Sa growth 42C second temp	GIV Gai3 FP	HCMV UL50-53 inh
COc1ccc2c(c1)cc1c(=O)n(CC(=O)NC(C)C)nc(C)n12
  105	90	100	-35
CN1C(=O)Cc2cc(S(=O)(=O)CCC(=O)Nc3ccc4c(c3)OCO4)ccc21
  ·	·	99	-22
CCc1cc2c(=O)c(-c3nc(C)cs3)c(CCC(=O)O)oc2cc1O
  102	76	105	7
CCc1ccc(NC(=O)CCn2c(-c3ccc(OC)cc3)cc(C(C)=O)c2C)cc1
  122	95	104	·
CCCCNc1ncnc2c1nc1n2CCCCC1
  85	85	99	-24
OC(CNCc1ccccn1)COc1ccc(OCC(O)CNCc2ccccn2)cc1 (stereo not drawn)
  75	91	102	-20
Cc1ccc2c(c1)-c1c(ssc1=Nc1ccc(S(N)(=O)=O)cc1)C(C)(C)N2
  122	67	99	·
CS/C(N)=N\N=C\c1ccccc1O
  105	96	110	-7
CC(C)N(c1ccccc1)c1ccc(NC(=O)c2ccccn2)cc1
  101	72	·	-6
O=C(/C=C/c1ccco1)Nc1ccc(Br)cc1
  104	83	137	28
CCC(=O)NCCc1nc2cc(NC(=O)c3cccc(Br)c3)ccc2n1C
  101	96	110	·
Nc1nc2c(c(=O)[nH]1)C(c1ccc3c(c1)OCO3)CC(=O)N2 (stereo not drawn)
  ·	·	98	-11
Cc1cc(C)c(S(=O)(=O)NCC(c2ccco2)S(=O)(=O)c2cccs2)c(C)c1 (stereo not drawn)
  107	67	99	·
Cn1cc(Br)c(-c2cccc(NC(=O)/C=C/C(=O)O)c2)n1
  95	83	102	-15
COC(=O)CSC1=C(C#N)C(c2ccc(C(C)C)cc2)CC(=O)N1 (stereo not drawn)
  95	84	106	-15

Additional compounds:
Each structure is followed by: Sa growth 42C	Sa growth 42C second temp	GIV Gai3 FP	HCMV UL50-53 inh
Cc1ccccc1Cn1c(=O)n(Cc2ccco2)c(=O)c2sc3ccccc3c21
  97	75	104	-29
Cc1ccccc1S(=O)(=O)Cc1ccc(C(=O)n2ccnc2)o1
  99	95	107	·
CC(O)C(=O)NS(=O)(=O)c1ccccc1 (stereo not drawn)
  81	106	103	6
CCCN(CCC)CCc1cccc2c1CC(=O)N2
  89	93	100	-22&-13
COc1ccc2oc(C(=O)CCC(=O)O)c(N)c2c1
  103	69	105	·
O=C1Nc2ccccc2N/C1=C\c1ccc2ccccc2n1
  75	97	·	9
COc1cccc(NC(=O)C2CCCN(c3ncnc4nn(-c5ccccc5)cc34)C2)c1 (stereo not drawn)
  ·	·	96	-17
Cc1ccc(NC(=O)Cn2cnc3c(sc4ccccc43)c2=O)cc1F
  ·	·	108	8
Nc1n[nH]c(N)c1N=Nc1ccc(Cl)cc1
  115	93	109	-70
O=c1[nH]cccc1-c1nc(-c2ccccc2Br)no1
  ·	·	101	-56
CCc1cccc(NC(=O)c2ccc3c(c2)N(Cc2cccc(Cl)c2)C(=O)c2ccccc2S3=O)c1 (stereo not drawn)
  114	87	102	·
CCOc1ccccc1-c1noc(CSc2nnc(-c3ccccc3)n2-c2cccc(C)c2)n1
  117	92	98	-20
O=C(Nc1cccs1)N1CCN(C(=O)C2CCCO2)CC1 (stereo not drawn)
  99	90	99	6
Cn1cnnc1SCC(=O)NC1CC1
  89	90	·	-7
Cc1ccc(CN2CCSc3ccc(C(=O)N4CCN(c5cc(C)ccc5C)CC4)cc32)cc1
  102	97	104	-8
Oc1ccc2nc(N3CCOCC3)sc2c1
  93	81	101	·
COC(=O)c1c(N)n(CCc2ccccc2)c2nc3ccccc3nc12
  109	94	99	·
Cc1ccccc1NC(=O)CNc1ccccc1N1CCCCC1
  124	92	·	-1

Random excerpt: 7 entries already listed
Each structure is followed by: Sa growth 42C	Sa growth 42C second temp	GIV Gai3 FP	HCMV UL50-53 inh
Cc1ccccc1NC(=O)CNc1ccccc1N1CCCCC1
  124	92	·	-1
COC(=O)c1c(N)n(CCc2ccccc2)c2nc3ccccc3nc12
  109	94	99	·
Oc1ccc2nc(N3CCOCC3)sc2c1
  93	81	101	·
Cc1ccc(NC(=O)Cn2cnc3c(sc4ccccc43)c2=O)cc1F
  ·	·	108	8
Cc1ccccc1Cn1c(=O)n(Cc2ccco2)c(=O)c2sc3ccccc3c21
  97	75	104	-29
COc1ccc2oc(C(=O)CCC(=O)O)c(N)c2c1
  103	69	105	·
Nc1n[nH]c(N)c1N=Nc1ccc(Cl)cc1
  115	93	109	-70

Outcome played no part in choosing rows. Share with any hit: about 0.82%.
